D2 potentiator: positive allosteric modulators of human D2 dopamine receptor; P14416; DiscoveRx D2 beta-arrestin cells, luminescence, 90 min; 100% = 57 uM dopamine signal; potentiation, % (no concentration beside the values); 360,000 compounds, 0.23% hits; active = potentiation of 50% or more; inconclusive = 30% to 50%; inactive = 30% or less;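 further: compound concentration not given in the record; tested on top of an EC20 dose of dopamine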
Target sequence (P14416 whole entry, looked up): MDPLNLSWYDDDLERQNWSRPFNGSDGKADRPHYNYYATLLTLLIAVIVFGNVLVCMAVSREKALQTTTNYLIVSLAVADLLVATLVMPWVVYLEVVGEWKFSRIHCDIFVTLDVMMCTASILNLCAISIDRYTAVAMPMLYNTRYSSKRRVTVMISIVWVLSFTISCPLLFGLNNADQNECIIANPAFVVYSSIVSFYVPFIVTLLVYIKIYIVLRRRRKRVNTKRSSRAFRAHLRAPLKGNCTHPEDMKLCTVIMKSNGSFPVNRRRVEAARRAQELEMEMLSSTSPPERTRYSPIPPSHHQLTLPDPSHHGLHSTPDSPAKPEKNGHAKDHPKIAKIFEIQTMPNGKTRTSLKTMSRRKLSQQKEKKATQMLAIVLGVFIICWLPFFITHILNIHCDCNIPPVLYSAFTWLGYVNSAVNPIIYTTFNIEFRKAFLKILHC
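PathHunter beta-arrestin assay in DiscoveRx D2 cells. Compounds were added with an EC20 of dopamine (50 nM final) for 90 min at 37 deg C. Luminescence was read 1 h after detection reagent, with 57 uM dopamine as the EC100 control.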
TRPML1 inh: human mucolipin-1 channel inhibition; Q9GZU1; TRPML1-inducible cells, Ca2+ dye fluorescence, FDSS; stronger effect = lower value; inhibition of EC80 agonist-evoked calcium signal; activity change, negative = inhibition, % (concentration not given with the values); 390,000 compounds, 0.02% hits; AID 624415; in the data active means activity change below about -50%; inconclusive means about -30% to -50%; inactive means above about -30%;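 further: stimulus is agonist 54-4 at its EC80 concentration; on the % scale 0 is the no-effect control and ±100 the full control effect; the text of the record puts the active cut at -80%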
Target sequence (Q9GZU1 whole entry, looked up): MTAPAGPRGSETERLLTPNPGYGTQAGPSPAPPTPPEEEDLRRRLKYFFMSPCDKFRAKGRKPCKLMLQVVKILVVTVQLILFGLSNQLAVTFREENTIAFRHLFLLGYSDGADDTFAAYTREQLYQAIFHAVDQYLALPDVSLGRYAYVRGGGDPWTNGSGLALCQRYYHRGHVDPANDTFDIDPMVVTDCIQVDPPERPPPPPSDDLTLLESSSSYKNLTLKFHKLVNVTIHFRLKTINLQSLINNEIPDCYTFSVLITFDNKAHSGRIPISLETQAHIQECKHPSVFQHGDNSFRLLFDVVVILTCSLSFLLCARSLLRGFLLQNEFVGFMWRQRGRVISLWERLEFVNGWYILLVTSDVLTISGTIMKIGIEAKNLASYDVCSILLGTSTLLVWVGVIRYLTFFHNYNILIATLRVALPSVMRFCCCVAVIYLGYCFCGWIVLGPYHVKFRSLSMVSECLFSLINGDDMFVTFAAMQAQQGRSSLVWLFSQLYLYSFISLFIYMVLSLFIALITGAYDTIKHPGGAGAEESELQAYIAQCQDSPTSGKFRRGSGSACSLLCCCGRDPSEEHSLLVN
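TRPML1-DL cells, Tet-induced overnight (~16 h, 37 °C) at 1,500 cells/well, were loaded with Ca8 no-wash dye plus quencher for 45-90 min at room temperature. Compounds were pinned during FDSS kinetic reading; agonist 54-4 at EC80 (4 uM final) then added.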
TRPV1 PAM: potentiators of human vanilloid receptor 1 (TRPV1); Q8NER1; 320,000 compounds, 0.02% hits; potentiation, % at 8.33 µM; AID 540277; TRPV1-expressing cells, Fluo-8 calcium influx, capsaicin EC20 potentiation; host cell line not named in the record; control for the full effect not named in the record; active means potentiation above 80%; inconclusive means 30% to 80%; inactive means below 30%; further: 0% is about no effect
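Fluo-8 calcium influx in TRPV1-expressing cells, kinetic read (ex 480/em 520 nm). Compound added and read 3 min for agonist activity, followed by capsaicin at EC20 final and 2 min further read for enhancement.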
TRPML1 ag: activates the human TRPML1 channel; AID 624414; TRPML1-expressing cells, Ca2+ dye fluorescence, FDSS; host cell line not named in the record; reference of the full effect not given here; Q9GZU1; 410,000 compounds, 0.12% hits; activation, % (test concentration not listed); in the data active = activation above about 50%; inconclusive = about 30% to 50%; inactive = below about 30%; further: 0% is about no effect; the text of the record puts the active cut at 80%
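Calcium fluorescence on an FDSS kinetic reader gave the read-out. Tet-induced TRPML1-DL cells were plated overnight, dye-loaded (Ca8 with quencher, 45-90 min, room temperature, dark), then read 110 s after compound addition, and again 110 s after 4uM final 54-4 (EC80).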
Six1-Eya2 inh: blocks human Six1 binding to Eya2. Q15475+O00167. AlphaScreen GST-Six1/His-Eya2 binding, biochemical; stronger effect = lower value; control for the full effect not named in the record. activity change, % (test concentration not listed). 360,000 compounds, 0.56% hits; in the data active = activity change below about -65%; inconclusive = about -30% to -65%; inactive = above about -30%; further: on the % scale 0 is the no-effect control and ±100 the full control effect
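Six1/Eya2 binding was read as AlphaScreen signal after compounds were pinned into GST-Six1 plus His-tagged Eya2 (5X stock 250/500 nM) in pH 8.0 Tris/NaCl/TCEP buffer, beads added, then incubated 1 h, 37 C, dark.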
CtBP-E1A blk: inhibitors of CtBP/E1A interaction | AlphaScreen GST-E1A/His-CtBP binding, 1536-well; stronger effect = lower value; control for the full effect not named in the record | activity change, % (test concentration not listed) | 340,000 compounds, 0.49% hits | AID 651724; in the data active means activity change below about -65%; inconclusive means about -30% to -65%; inactive means above about -30%; further: on the % scale 0 is the no-effect control and ±100 the full control effect
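AlphaScreen with 125 nM GST-E1A and 125 nM His-CtBP (5X stocks) in Tris pH 8.0, 300 mM NaCl, BSA, Tween 20, TCEP. Compounds preincubated 2 h at 37 deg C, then glutathione donor/nickel acceptor beads added for 1 h at 37 deg C in dark.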
* hit, by the source's call; ? = inconclusive; . = not tested or not shown.

SMILES | D2 potentiator | TRPML1 inh | TRPV1 PAM | TRPML1 ag | Six1-Eya2 inh | CtBP-E1A blk
CCCC(=O)Nc1cc(C)c(NC(=O)c2ccccn2)cn1 | -14.4 | -6.6 | 0.2 | -0.5 | -27.2 | -17.4
CC/C(=N\NC(N)=O)c1ccc(OC(F)F)cc1 | 0.8 | -1.7 | 23.7 | -1.1 | 7.4 | -6.2
O=C(/C=C/c1ccc2c(c1)OCO2)Nc1nc2ccccc2s1 | -0.1 | 13.9 | 25.0 | 1.5 | 1.3 | 9.3
COc1ccc(-c2cc(=O)c3ccccc3[nH]2)cc1 | -13.0 | -3.0 | 7.2 | -0.7 | 5.4 | 7.2
Cc1ccc(CN(Cc2cc3cc4c(cc3[nH]c2=O)OCCO4)Cc2nnnn2Cc2ccco2)cc1 | -19.0 | -1.4 | -11.0 | 0.3 | -10.4 | -19.5
CC(Sc1ccc(S(=O)(=O)N2CCN(C)CC2)cn1)C(=O)Nc1cccc(Cl)c1Cl (stereo not drawn) | -1.9 | 36.0 | . | 4.7 | -14.1 | -19.5
C[N+]1(CCOc2ccc([N+](=O)[O-])cc2)CCOCC1 | -16.9 | -12.0 | 12.2 | -0.3 | 1.9 | -1.7
CN1C(=S)SC(/[N+]([O-])=C\c2ccccc2F)C1(C)C (stereo not drawn) | -21.5 | -2.1 | 5.7 | -0.2 | 1.2 | .
O=C(NN1C(=O)/C(=C\c2cccnc2)SC1=S)C(c1ccccc1)c1ccccc1 | -17.6 | 46.2 | 11.0 | 0.0 | -8.3 | -5.7
COc1cc2c(cc1OC)C(c1ccccc1O)NCC2 (stereo not drawn) | 1.2 | . | 1.5 | . | -1.3 | .
O=C(CC1C(=O)NCCN1Cc1ccc(F)cc1Cl)NCc1ccon1 (stereo not drawn) | -7.6 | 2.2 | 13.9 | -0.4 | -8.8 | 0.7
O=C(c1cc(-c2ccccc2)nn1-c1ccccc1)N1CCN(S(=O)(=O)c2ccc(F)cc2)CC1 | -1.5 | -5.3 | 1.8 | -0.3 | -0.2 | 1.6
CCC(C)/C(C)=N/Nc1ccc(S(N)(=O)=O)cc1[N+](=O)[O-] (stereo not drawn) | 4.8 | -1.7 | 1.0 | 1.9 | ? | 1.2
COc1ccc(C2CC(c3ccc(OC)c(OC)c3)=NN2C(=O)c2ccccc2)cc1 (stereo not drawn) | -4.1 | 56.2 | -0.6 | 2.3 | -14.7 | .
O=C(CCc1nc(-c2ccccc2)no1)NCCc1ccccc1 | -16.6 | -12.7 | 4.2 | 0.2 | 33.9 | 43.1
Cc1ccc(C(=O)Oc2cccc(NC(=O)c3cccs3)c2)cc1S(=O)(=O)N1CCOCC1 | -18.8 | -3.8 | -7.1 | 1.8 | -11.2 | -0.9
Cc1cc(C)c(S(=O)(=O)N2CCCC2=O)c(C)c1 | 3.3 | 20.0 | 1.1 | -0.8 | -0.1 | 3.4
Cc1ccn2cc(-c3cccc(NC(=O)CCC(=O)O)c3)nc2c1 | -7.9 | 9.3 | -12.6 | 0.1 | -2.1 | -9.5
COc1cccc(C(=O)N2CCN(Cc3ccccc3[N+](=O)[O-])CC2)c1 | -1.6 | -3.3 | -6.4 | -0.7 | -1.0 | .
C=CCN(c1ccccc1)S(=O)(=O)c1ccc2c(c1)oc(=O)n2C | -3.9 | 0.1 | . | -0.4 | 1.8 | -15.2
Cc1ccccc1OCCCC(=O)Nc1ccccc1C(F)(F)F | -21.8 | -6.4 | -11.9 | 3.0 | 8.5 | 13.9
CN(C)c1ccc(/C=N/NC(=O)c2cccc(C(=O)N/N=C/c3ccc(N(C)C)cc3)n2)cc1 | -2.3 | -1.6 | 4.2 | -0.3 | 0.2 | 13.5
Cc1noc(C)c1S(=O)(=O)N1CCC2(CC1)OCCO2 | -11.5 | -0.9 | -13.3 | 0.7 | 5.2 | 5.4
O=C(OCC(=O)N1CCCCCC1)c1cccc(Cl)c1Cl | -11.9 | -3.6 | . | -0.8 | 0.9 | 5.0
c1ccc(-c2nc(NC3CC3)nc(-n3ccnc3)n2)cc1 | -3.5 | 9.6 | 0.9 | 1.3 | 8.5 | 4.6
COc1cc(C(C(=O)NCC2CCCO2)N(C(=O)Cn2nnc3ccccc32)c2ccc(C(C)=O)cc2)ccc1O (stereo not drawn) | -4.8 | 35.9 | -26.7 | 0.2 | 10.0 | 0.6
CCc1occc(=O)c1Oc1cc(NN2CCCCC2)c([N+](=O)[O-])cc1[N+](=O)[O-] | -10.1 | -2.8 | -27.1 | -0.7 | -10.5 | -2.5
O=C(NCCNc1nccc(C(F)(F)F)n1)c1cccc(C(F)(F)F)c1 | -7.6 | 4.8 | -13.9 | 0.2 | 8.5 | 5.8
COc1cccc(CC2(CO)CCCN(Cc3cc4ccccc4[nH]3)C2)c1 (stereo not drawn) | -15.6 | 13.2 | -4.8 | 10.8 | -10.6 | -4.3
O=c1oc2ccccc2c2c1nnn2CCO | -3.8 | 15.4 | 11.5 | 0.0 | -1.6 | 13.7
Cc1cc(C)n2nc(C(=O)Nc3nnc(C4CC4)s3)nc2n1 | -15.0 | 31.6 | -0.3 | -0.1 | 3.3 | -2.0
CN(C(=O)COC(=O)CNC(=O)C12CC3CC(CC(C3)C1)C2)C1CCS(=O)(=O)C1 (stereo not drawn) | -8.4 | -13.9 | 8.0 | 1.0 | 7.5 | -14.7
Cc1onc(-c2ccccc2Cl)c1C(=O)Nc1nnc(Cc2ccc(Cl)cc2)s1 | -9.1 | 9.0 | 21.6 | -0.7 | -7.4 | -3.8
COc1ccc(C(C(=O)NC2CCCC2)N(C(=O)c2ccco2)c2cc3c(cc2C(C)=O)OCO3)cc1OC (stereo not drawn) | -1.2 | 1.4 | 4.5 | -0.7 | -7.0 | -3.9
Cc1ccc(S(=O)(=O)Nc2cccc(S(=O)(=O)N3CCCC3)c2)cc1C | 4.4 | 5.7 | -10.6 | 0.3 | -0.9 | 2.8
O=[N+]([O-])c1ccc(NN=Cc2ccc(O)cc2)nc1 | -5.9 | 21.1 | . | 0.7 | -22.5 | -19.0
CCC(=O)Nc1cccc(-c2cnc3ccccc3n2)c1 | -6.5 | 5.6 | 7.0 | -0.8 | -3.0 | -2.7
CCOC(=O)/C(C#N)=C/c1c(N2CCN(Cc3ccc4c(c3)OCO4)CC2)nc2c(C)cccn2c1=O | 0.1 | 34.6 | 5.4 | 3.4 | -25.1 | -5.8
O=C(CCNS(=O)(=O)c1cccc2nsnc12)NCCC1=CCCCC1 | -9.8 | 34.2 | 1.1 | 2.8 | 1.0 | -12.7
CCN1CCN(C(CNS(=O)(=O)c2ccc(OC)c(C)c2)c2cccnc2)CC1 (stereo not drawn) | -3.4 | -4.8 | 6.0 | -0.3 | -10.7 | -4.6

4 compounds drawn at random from the list so far:
SMILES | D2 potentiator | TRPML1 inh | TRPV1 PAM | TRPML1 ag | Six1-Eya2 inh | CtBP-E1A blk
C=CCN(c1ccccc1)S(=O)(=O)c1ccc2c(c1)oc(=O)n2C | -3.9 | 0.1 | . | -0.4 | 1.8 | -15.2
Cc1ccn2cc(-c3cccc(NC(=O)CCC(=O)O)c3)nc2c1 | -7.9 | 9.3 | -12.6 | 0.1 | -2.1 | -9.5
Cc1cc(C)c(S(=O)(=O)N2CCCC2=O)c(C)c1 | 3.3 | 20.0 | 1.1 | -0.8 | -0.1 | 3.4
CCCC(=O)Nc1cc(C)c(NC(=O)c2ccccn2)cn1 | -14.4 | -6.6 | 0.2 | -0.5 | -27.2 | -17.4

Record cards, from the list above. Order of values: D2 potentiator, TRPML1 inh, TRPV1 PAM, TRPML1 ag, Six1-Eya2 inh, CtBP-E1A blk
Entry for `O=C(CC1C(=O)NCCN1Cc1ccc(F)cc1Cl)NCc1ccon1` (stereo not drawn) = -7.6, 2.2, 13.9, -0.4, -8.8, 0.7
Entry for `Cc1ccc(S(=O)(=O)Nc2cccc(S(=O)(=O)N3CCCC3)c2)cc1C` = 4.4, 5.7, -10.6, 0.3, -0.9, 2.8

The list continues:
SMILES | D2 potentiator | TRPML1 inh | TRPV1 PAM | TRPML1 ag | Six1-Eya2 inh | CtBP-E1A blk
O=C([C@H](O)c1ccccc1)N1CCC[C@H]1CO | -7.9 | 11.4 | 8.3 | -0.1 | 6.8 | 10.4
N#Cc1ccc(OCC(=O)Nc2nc(-c3ccncc3)cs2)cc1 | -2.3 | -4.7 | 0.0 | 2.5 | 2.6 | -20.7
COc1ccccc1C(=O)N1C(CC(=O)Nc2ccc(C)c(C)c2)C(=O)NC2CCCCC21 (stereo not drawn) | -7.1 | 4.7 | 5.0 | -0.7 | -3.9 | -1.4
CC(=O)Nc1nnc(SCC(=O)N2CCN(Cc3ccccc3)CC2)s1 | -14.3 | 6.3 | ? | 0.1 | 3.4 | 1.7
Cc1occc1C(=O)Nc1cc(S(=O)(=O)N2CCOCC2)ccc1OC(C)C | 10.8 | ? | -7.8 | -0.1 | -4.4 | -3.6
Cc1ccccc1C(=O)Oc1ccc(Cl)cc1C(=S)N1CCOCC1 | -6.4 | 52.0 | ? | 2.0 | -3.5 | -5.6
Cc1ccnc(NC(=O)CSc2ccc3c(c2)OCCO3)c1 | -18.9 | 55.8 | -4.3 | 0.3 | -6.4 | 10.0
Cc1cnn(CCC(=O)NNC(=S)Nc2ccccc2)c1 | -21.5 | 6.2 | -0.8 | -0.4 | 4.8 | 0.5
COc1ccc(C(=O)N2CCOC2CNC(=O)C(=O)NCCc2ccc(OC)c(OC)c2)cc1 (stereo not drawn) | 3.3 | -9.5 | 5.1 | 0.9 | 0.8 | -9.3
Fc1ccccc1NC(=S)Nc1ccc(Br)cc1 | -7.4 | 0.0 | 9.1 | -0.1 | 8.2 | -2.6
CN(C)C(=O)c1cc(C(=O)c2ccc(F)cc2Cl)c[nH]1 | 1.6 | -4.7 | -10.8 | 1.6 | 2.8 | -23.8
COc1ccccc1C(CC(=O)O)c1ccc2c(c1)OCO2 (stereo not drawn) | 0.2 | 10.0 | 2.2 | -0.1 | 1.4 | 3.2
CSC1=NCCN1C(=O)C(C)Oc1ccccc1 (stereo not drawn) | -7.0 | 1.5 | 19.3 | -0.2 | 1.1 | 7.1
COc1ccc(NC(=O)C2(C)Cc3c(-c4cccc(NC(C)=O)c4)ccnc3O2)cn1 (stereo not drawn) | -0.3 | . | . | -0.3 | -1.6 | 5.3
Cc1c(Cl)cnc(NC(=O)COC(=O)C2CC3CCCC(C2)C3=O)c1Cl (stereo not drawn) | 0.3 | 1.7 | -9.3 | -0.6 | -1.0 | .
Cc1ccc(C(=O)N/N=C/c2ccc(-c3ccccc3[N+](=O)[O-])o2)cn1 | 4.0 | 14.8 | -1.3 | 0.5 | -69.0* | ?
Cc1ccc(NC(=O)c2ncn(CCCNCC(C)c3ccccc3)n2)cc1C (stereo not drawn) | -10.0 | -9.1 | . | -1.0 | -0.3 | -4.0
CNc1ncnc2c1ncn2[C@H]1CN(C2CCCC2)C[C@@H](CO)O1 | -8.9 | . | . | -0.3 | 4.4 | 1.8
COc1ccc(S(=O)(=O)Nc2cc(Cl)ccc2-n2cncn2)cc1 | -1.1 | -6.1 | 4.8 | 4.3 | 0.7 | -5.9

High-throughput results deposited in PubChem BioAssay by National Center for Advancing Translational Sciences (NCATS).
